# Screening results as filed in PubChem.
# A1 apoptosis 2: compounds inhibiting A1, read as caspase activation. caspase activation, % (no concentration beside the values). MEF A1-2A-BIM cells, caspase-Glo luminescence, 3 h; percent of clofoctol response, DMSO zero. AID 2465. 24,000 tested, under 10 active; in the data active = caspase activation above about 5.9%;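 note: wells of about 30 µL received 50 nL stock; the first replicate is given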
#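 Material: A1-2A-BIM-expressing MEF cells. Buffer or medium: RPMI-1640 plus 10% FBS. Incubation: cells settled overnight, compound exposure 3 h at 37 °C, 5% CO2. Signal: Caspase-Glo 3/7 luminescence, 1 h at room temperature.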
# Numbers without * were called inactive; & = joins results of further samples.
SMILES,A1 apoptosis 2
COc1ccc(CN(C)C[C@@H]2Oc3ccc(NS(=O)(=O)c4ccccc4)cc3CC(=O)N([C@H](C)CO)C[C@H]2C)cc1,-0.5
CC(C)NC(=O)Nc1ccc2c(c1)C(=O)N([C@@H](C)CO)C[C@H](C)[C@H](CN(C)C(=O)c1ccncc1)OCCCC[C@@H](C)O2,1.1
COc1ccc(NC(=O)Nc2ccc3c(c2)C(=O)N([C@H](C)CO)C[C@H](C)[C@H](CN(C)C(=O)NC(C)C)OCCCC[C@H](C)O3)cc1,0.0
O=C(C1=C[C@H](c2ccccc2)C[C@H](OCc2ccc(CO)cc2)O1)N1CCN(Cc2ccc3c(c2)OCO3)CC1,-0.6&0.5
C[C@@H]1CN([C@H](C)CO)C(=O)c2cccc(NC(=O)NC3CCCCC3)c2O[C@@H]1CN(C)Cc1ccccc1,-0.6
COC(=O)C(CC#Cc1ccc2c(c1)[C@]1(C(=O)N2)[C@H](C(=O)N2CCCCCCC2)[C@H]2C(=O)O[C@H](c3ccccc3)[C@H](c3ccccc3)N2[C@@H]1c1ccc(OCCO)cc1)C(=O)OC,0.3
C[C@H]1CN([C@@H](C)CO)C(=O)c2cc(NC(=O)Nc3cccc4ccccc34)ccc2O[C@@H]1CN(C)C(=O)Nc1ccccc1,-0.9
COc1ccc(NC(=O)Nc2ccc3c(c2)C(=O)N([C@@H](C)CO)C[C@@H](C)[C@@H](CN(C)Cc2ccc(C(=O)O)cc2)O3)cc1,-0.4
C[C@@H]1CCCCO[C@H](CN(C)Cc2ccc(C(=O)O)cc2)[C@@H](C)CN([C@@H](C)CO)C(=O)c2cc(NC(=O)CCC(F)(F)F)ccc2O1,-1.2
C[C@@H]1CCCCO[C@@H](CN(C)CC2CCCCC2)[C@H](C)CN([C@H](C)CO)C(=O)c2cc(NC(=O)Nc3ccc(F)cc3)ccc2O1,0.7
Cc1ccc(S(=O)(=O)Nc2ccc3c(c2)C(=O)N([C@@H](C)CO)C[C@H](C)[C@@H](CN(C)C(=O)Nc2ccc4c(c2)OCO4)OCCCC[C@H](C)O3)cc1,-0.7
COc1ccc(S(=O)(=O)Nc2ccc3c(c2)CC(=O)N([C@H](C)CO)C[C@@H](C)[C@@H](CN(C)C(=O)Nc2ccc4c(c2)OCO4)O3)cc1,-0.1
CC(=O)[C@]12O[C@]3(COC[C@H](c4ccccc4)N3C1=O)[C@@H]1C(=O)N(C)C(=O)[C@@H]12,0.5
C[C@@H]1CN([C@@H](C)CO)C(=O)Cc2cc(NC(=O)C3CCCCC3)ccc2O[C@H]1CN(C)Cc1ccncc1,0.7
CNC[C@H]1Oc2ccc(NC(=O)Nc3ccc(F)cc3)cc2CC(=O)N([C@H](C)CO)C[C@H]1C,1.3
C[C@@H]1CCCCO[C@@H](CN(C)C(=O)Nc2ccc3c(c2)OCO3)[C@H](C)CN([C@@H](C)CO)C(=O)c2cc(NC(=O)Nc3ccc(F)cc3)ccc2O1,1.2
COc1ccc(NC(=O)Nc2ccc3c(c2)C(=O)N([C@H](C)CO)C[C@H](C)[C@H](CN(C)S(=O)(=O)c2cn(C)cn2)OCCCC[C@H](C)O3)cc1,0.1
C[C@@H]1CN([C@H](C)CO)C(=O)Cc2cc(NC(=O)Cc3cn(C)c4ccccc34)ccc2O[C@H]1CN(C)C(=O)Nc1ccc2c(c1)OCO2,-0.2
C=CCNC(=O)[C@@H]1[C@H]2C(=O)O[C@H](c3ccccc3)[C@H](c3ccccc3)N2[C@H](c2ccccc2OCCO)[C@@]12C(=O)N(C(=O)OCCOC)c1ccc(C#CCCO)cc12,-0.8
CCCN(C)C[C@@H]1Oc2ncc(C#Cc3ccc(OC)c(OC)c3)cc2C(=O)N([C@H](C)CO)C[C@@H]1C,-1.1
CC(C)NC(=O)N(C)C[C@@H]1OCc2cnnn2CCCC(=O)N([C@H](C)CO)C[C@@H]1C,0.6
C[C@@H]1CN([C@H](C)CO)C(=O)c2cc(NC(=O)CCCCCC(=O)Nc3ccccc3N)ccc2O[C@@H]1CN(C)Cc1ccncc1,-1.3
COc1ccc(CN(C)C[C@@H]2Oc3ccc(NS(=O)(=O)c4ccccc4)cc3C(=O)N([C@@H](C)CO)C[C@@H]2C)cc1,-0.1
C[C@H]1CN([C@@H](C)CO)C(=O)c2cc(N(C)C)ccc2O[C@@H]1CN(C)Cc1ccncc1,0.6
COc1ccc(CN(C)C[C@@H]2Oc3c(NC(=O)Nc4c(C)noc4C)cccc3C(=O)N([C@H](C)CO)C[C@@H]2C)cc1,-1.2
Cc1ccc(S(=O)(=O)Nc2ccc3c(c2)C(=O)N([C@@H](C)CO)C[C@H](C)[C@H](CN(C)S(=O)(=O)c2ccc(C)cc2)OCCCC[C@@H](C)O3)cc1,-0.5
Cc1ccc(S(=O)(=O)Nc2cccc3c2O[C@@H](CN(C)S(=O)(=O)c2cccs2)[C@@H](C)CN([C@@H](C)CO)C3=O)cc1,0.1
COc1ccc(NC(=O)Nc2ccc3c(c2)C(=O)N([C@H](C)CO)C[C@@H](C)[C@@H](CN(C)S(=O)(=O)c2c(C)noc2C)OCCCC[C@H](C)O3)cc1,-0.9
CC(C)NC(=O)N(C)C[C@@H]1OCCCC[C@H](C)Oc2ccc(NC(=O)Nc3ccc(C(F)(F)F)cc3)cc2C(=O)N([C@@H](C)CO)C[C@H]1C,1.3
COc1ccc(S(=O)(=O)N(C)C[C@@H]2Oc3ccc(NC(=O)CCN4CCOCC4)cc3C(=O)N([C@H](C)CO)C[C@H]2C)cc1,-1.5
C[C@H]1CN([C@@H](C)CO)C(=O)c2cc(NS(=O)(=O)c3ccc(F)cc3)ccc2O[C@H]1CN(C)Cc1ccncc1,0.6
CCCC(O)C#Cc1cnc2c(c1)C(=O)N([C@H](C)CO)C[C@H](C)[C@H](CN(C)S(=O)(=O)c1cccs1)O2 (stereo not given in full),1.2
Cc1noc(C)c1S(=O)(=O)Nc1ccc2c(c1)C(=O)N([C@H](C)CO)C[C@@H](C)[C@H](CN(C)Cc1ccccc1)O2,-0.2
C[C@@H]1CN([C@H](C)CO)C(=O)c2cc(NC(=O)Nc3ccccc3)ccc2O[C@@H](C)CCCCO[C@@H]1CN(C)C(=O)Cc1ccccc1,0.7
C[C@@H]1CN([C@H](C)CO)C(=O)c2cc(NC(=O)Nc3ccc(C(F)(F)F)cc3)ccc2O[C@@H](C)CCCCO[C@@H]1CN(C)S(=O)(=O)c1cccs1,-1.1
C[C@@H]1CN([C@@H](C)CO)C(=O)c2cc(NS(C)(=O)=O)ccc2O[C@@H](C)CCCCO[C@H]1CN(C)C(=O)Cc1ccccc1,0.0
CC(C)NC(=O)Nc1ccc2c(c1)C(=O)N([C@H](C)CO)C[C@H](C)[C@@H](CN(C)S(=O)(=O)c1cccs1)OCCCC[C@H](C)O2,0.8
C[C@@H]1CCCCO[C@@H](CN(C)CC2CCCCC2)[C@H](C)CN([C@@H](C)CO)C(=O)c2cc(NC(=O)Cc3ccccc3)ccc2O1,-0.2
O=S(=O)(N[C@@H]1CCCN(Cc2ccc(OCCO)cc2)C1)c1cccc(F)c1,0.2
O=C(O)C1=C[C@H](c2csc3ccccc23)C[C@H](OCCCCO)O1,0.5&1.4
C[C@@H]1CN([C@H](C)CO)C(=O)Cc2cc(NC(=O)Nc3ccc(C(F)(F)F)cc3)ccc2O[C@@H]1CN(C)Cc1ccc(C(=O)Nc2ccccc2N)cc1,-0.3
C[C@@H]1CN([C@H](C)CO)C(=O)c2cccc(NS(=O)(=O)c3ccccc3)c2O[C@H]1CN(C)S(=O)(=O)c1cccs1,1.0
O=Cc1ccc(NC(=O)CCCCCCC(=O)NOCc2ccccc2)cc1,-0.2
Cc1ccc(S(=O)(=O)Nc2cccc3c2O[C@@H](CN(C)Cc2ccc(Cl)c(Cl)c2)[C@H](C)CN([C@H](C)CO)C3=O)cc1,0.5
Cc1ccc(S(=O)(=O)N(C)C[C@@H]2Oc3ccc(NC(=O)Nc4ccccc4)cc3CC(=O)N([C@@H](C)CO)C[C@@H]2C)cc1,-0.1
COc1ccc(S(=O)(=O)N(C)C[C@H]2OCCCC[C@H](C)Oc3ccc(NS(=O)(=O)c4ccc(F)cc4)cc3C(=O)N([C@@H](C)CO)C[C@H]2C)cc1,-0.6
Cc1ccc(S(=O)(=O)N(C)C[C@H]2Oc3ccc(NC(=O)NC(C)C)cc3CC(=O)N([C@@H](C)CO)C[C@H]2C)cc1,0.2
CNC[C@@H]1Oc2ccc(NS(=O)(=O)c3ccc(F)cc3)cc2CC(=O)N([C@H](C)CO)C[C@H]1C,-0.7
COc1ccc(NC(=O)Nc2cccc3c2O[C@@H](CN(C)S(=O)(=O)c2cccs2)[C@H](C)CN([C@@H](C)CO)C3=O)cc1,-0.4
Cc1ccc(S(=O)(=O)N(C)C[C@H]2OCCCC[C@H](C)Oc3ccc(NC(=O)c4ccccc4)cc3C(=O)N([C@@H](C)CO)C[C@@H]2C)cc1,0.2

# Additional compounds follow:
SMILES,A1 apoptosis 2
C[C@H](CO)N1C[C@H](C)[C@H](CN(C)S(=O)(=O)c2cn(C)cn2)Oc2ccc(NC(=O)CCCN(C)C)cc2C1=O,-0.4
COc1cc(O)cc(OC)c1/C=N/NC(=O)CCCCCCC(=O)Nc1ccccc1O,-1.9
COc1ccc(NC(=O)N(C)C[C@H]2OCCCC[C@@H](C)Oc3ccc(NC(=O)NC4CCCCC4)cc3C(=O)N([C@@H](C)CO)C[C@H]2C)cc1,0.5
C[C@@H]1CN([C@@H](C)CO)C(=O)c2cc(NS(=O)(=O)c3cn(C)cn3)ccc2O[C@@H](C)CCCCO[C@H]1CN(C)C(=O)c1ccccc1,-0.5
C[C@@H]1CN([C@H](C)CO)C(=O)c2cccc(NC(=O)NC3CCCCC3)c2O[C@H]1CN(C)C,0.7
C[C@H]1CN([C@@H](C)CO)C(=O)c2cc(NS(=O)(=O)c3ccc(F)cc3)ccc2O[C@H]1CN(C)Cc1ccc(C(=O)O)cc1,0.1
COc1ccc(NC(=O)Nc2ccc3c(c2)CC(=O)N([C@@H](C)CO)C[C@H](C)[C@@H](CN(C)C)O3)cc1,-0.4
Cc1ccc(S(=O)(=O)N(C)C[C@@H]2Oc3c(NC(=O)C4CC4)cccc3C(=O)N([C@@H](C)CO)C[C@@H]2C)cc1,1.2
COc1ccc(S(=O)(=O)Nc2ccc3c(c2)C(=O)N([C@@H](C)CO)C[C@H](C)[C@@H](CN(C)C(=O)Nc2ccccc2)OCCCC[C@@H](C)O3)cc1,-0.7
C[C@@H]1CN([C@@H](C)CO)C(=O)c2cc(NC(=O)Nc3ccc4c(c3)OCO4)ccc2O[C@H]1CN(C)C(=O)Nc1ccc(F)cc1,-0.6

# A different layout for some results above.
mol	A1 apoptosis 2
Cc1ccc(S(=O)(=O)N(C)C[C@H]2Oc3ccc(NC(=O)NC(C)C)cc3CC(=O)N([C@@H](C)CO)C[C@H]2C)cc1	0.2
CNC[C@@H]1Oc2ccc(NS(=O)(=O)c3ccc(F)cc3)cc2CC(=O)N([C@H](C)CO)C[C@H]1C	-0.7
COc1ccc(NC(=O)Nc2cccc3c2O[C@@H](CN(C)S(=O)(=O)c2cccs2)[C@H](C)CN([C@@H](C)CO)C3=O)cc1	-0.4
Cc1ccc(S(=O)(=O)N(C)C[C@H]2OCCCC[C@H](C)Oc3ccc(NC(=O)c4ccccc4)cc3C(=O)N([C@@H](C)CO)C[C@@H]2C)cc1	0.2
C[C@H](CO)N1C[C@H](C)[C@H](CN(C)S(=O)(=O)c2cn(C)cn2)Oc2ccc(NC(=O)CCCN(C)C)cc2C1=O	-0.4
COc1cc(O)cc(OC)c1/C=N/NC(=O)CCCCCCC(=O)Nc1ccccc1O	-1.9
COc1ccc(NC(=O)N(C)C[C@H]2OCCCC[C@@H](C)Oc3ccc(NC(=O)NC4CCCCC4)cc3C(=O)N([C@@H](C)CO)C[C@H]2C)cc1	0.5
C[C@@H]1CN([C@@H](C)CO)C(=O)c2cc(NS(=O)(=O)c3cn(C)cn3)ccc2O[C@@H](C)CCCCO[C@H]1CN(C)C(=O)c1ccccc1	-0.5
C[C@@H]1CN([C@H](C)CO)C(=O)c2cccc(NC(=O)NC3CCCCC3)c2O[C@H]1CN(C)C	0.7
C[C@H]1CN([C@@H](C)CO)C(=O)c2cc(NS(=O)(=O)c3ccc(F)cc3)ccc2O[C@H]1CN(C)Cc1ccc(C(=O)O)cc1	0.1
COc1ccc(NC(=O)Nc2ccc3c(c2)CC(=O)N([C@@H](C)CO)C[C@H](C)[C@@H](CN(C)C)O3)cc1	-0.4

# (further entries)
SMILES,A1 apoptosis 2
COc1ccc(S(=O)(=O)Nc2cccc3c2O[C@H](CN(C)C(=O)Nc2c(C)noc2C)[C@H](C)CN([C@H](C)CO)C3=O)cc1,0.4
O=S(=O)(c1cccc(F)c1)N1CCN(Cc2ccc(OCCO)cc2)CC1,1.0
Cc1noc(C)c1S(=O)(=O)Nc1ccc2c(c1)C(=O)N([C@H](C)CO)C[C@@H](C)[C@@H](CN(C)Cc1ccccc1)OCCCC[C@@H](C)O2,-1.4
C[C@@H]1CN([C@@H](C)CO)C(=O)CCCn2nncc2CO[C@H]1CN(C)Cc1ccccc1O,0.6
C[C@@H]1CN([C@@H](C)CO)C(=O)c2cc(NC(=O)Nc3cccc4ccccc34)ccc2O[C@@H](C)CCCCO[C@@H]1CN(C)Cc1ccc(C(=O)O)cc1,0.3
C[C@H]1CN([C@@H](C)CO)C(=O)c2cccc(NC(=O)c3ccncc3)c2O[C@H]1CN(C)S(=O)(=O)c1ccccc1,-0.8
C[C@H](CO)N1C[C@H](C)[C@@H](CN(C)S(=O)(=O)c2ccc(Cl)cc2)Oc2c(NS(=O)(=O)c3ccc(Cl)cc3)cccc2C1=O,1.1
C[C@H](CO)N1C[C@H](C)[C@H](CN(C)CC2CC2)Oc2c(NS(=O)(=O)c3ccc(Cl)cc3)cccc2C1=O,-0.8
Cc1ccc(S(=O)(=O)N(C)C[C@@H]2OCCCC[C@H](C)Oc3ccc(NS(=O)(=O)c4c(C)noc4C)cc3C(=O)N([C@@H](C)CO)C[C@@H]2C)cc1,-0.4

# Some of the compounds tested (hit frequency here may not be typical).
